NPYLR7 ag – mosquito NPYLR7 agonism; AID 1259423; 270,000 compounds, 0.15% hits; activation, % at 10 µM; HEK293T NPYLR7/Galpha15, GCaMP6s calcium fluorescence; in the data active = activation above about 40%;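 also: 0% = vehicle and 100% = reference agonist at the receptor; some compounds past the cut are filed as inactive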
NPYLR7 ag max-min – also measured in NPYLR7 ag; calls as there; activation, %; measured here: Max-Min RFU normalised activation; some inactives read as strong as hits;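 span of the calcium signal over five minutes; 0% = vehicle and 100% = native peptide agonist; compound fluorescence can raise it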
Active calls of the source: *; & = joins results of further samples. A portion of the library; the hit share may differ from the screen's.

entry	Molecule	NPYLR7 ag	NPYLR7 ag max-min
1	C=CC(=O)Nc1ccc2ncnc(Nc3ccc(OCc4cccc(F)c4)c(Cl)c3)c2c1	-3	-8
2	C=C(C)COc1ccccc1C(=O)N(C)Cc1csc(C)n1	8	2
3	Cn1c(=NNC(=O)CN2CCSC2=O)sc2ccccc21	7	12
4	Cc1ccc(S(=O)(=O)N2CCCN(S(=O)(=O)c3ccccc3F)CC2)cc1	19	18
5	CCC1CN(Cc2cnc3c(S(C)(=O)=O)cnn3c2)CCN1C(C)C (configuration not stated)	3	0
6	NC(=O)[C@@H]1CCCN1C(=O)CN1C(=O)C(Oc2ccccc2)C1c1ccccc1 (some centres not stated)	9	11
7	CNC(=O)CC1CCN(C(=O)CCn2ccc3ccccc32)CC1	7	5
8	CC1CCCN(c2nc3ccccc3nc2C(C#N)C(=O)OC2CCCCC2)C1 (configuration not stated)	6	-6
9	CC1CCCN(c2cc(C(=O)NCc3ccccn3)c3ccccc3n2)C1 (configuration not stated)	19	25
10	NC(=O)COc1cccc(NC(=O)/C=C/c2ccc(Cl)c(C(F)(F)F)c2)c1	6	7
11	N#CCc1nc2ccccc2s1	4	5
12	CCCCCNC(=O)CC(c1ccc2c(c1)OCO2)c1cn(C)c2ccccc12 (configuration not stated)	11	11
13	COc1ccc(C(=O)N2CCc3cc(F)ccc3C2C)nn1 (configuration not stated)	1	0
14	C/C(=N/Nc1nc(-c2cc3ccccc3oc2=O)cs1)c1ccccc1	3	-3
15	COc1ccc(CNc2ccc(N3CCN(C)CC3)nc2)cc1C#N	-22	-23
16	Fc1cc(Cl)cc(Oc2ccc3c(-c4cccnc4)noc3n2)c1	-4	-6
17	O=C(NC1CC1)C1CCCN(C2CCN(c3nnnn3-c3ccccc3)CC2)C1 (configuration not stated)	13	7
18	Cc1cnc2c(S(=O)(=O)NC3CCCCC3)cccc2c1	4	3
19	Cc1cc(CNC(=O)c2cc(C)on2)c2[nH]c(-c3ccccc3)c(C)c2c1	6	-3
20	O=C1OC(/C=C/c2ccc(Cl)cc2)=NC/1=C/c1ccccc1F	2	-2
21	Cc1cc(CNC(=O)C2CCCN(C3CCN(Cc4ccccc4)CC3)C2)on1 (configuration not stated)	7	-2
22	COc1ccc(S(=O)(=O)n2nc(C)c(S(=O)(=O)N3CCCCC3)c2C)cc1OC	5	2
23	N#Cc1ccsc1NC(=O)c1cc(Cl)sc1Cl	-10	-13
24	Oc1ccc(-c2nc3ccccn3c2NC2CCCCC2)cc1	11&7	10&10
25	CCCCN(C=O)c1c(CC)nc2ccc(C(=O)N(C)C(C)C)cn12	-13	-13
26	COC(=O)c1cc(OC)c(OC)cc1NC(=O)c1cc2ccccc2o1	13	3
27	Cc1cc(C)n2nc3cccc(F)c3c2n1	-9	-16
28	Cc1cccc(NC(=O)Cn2nnc(C(=O)NCCc3ccccc3)c2N)c1C	4	7
29	Cc1ccc(C(=O)NCC2(N(C)C)CCSC2)s1 (configuration not stated)	1	-2
30	COc1ccc(-c2ccc(OCCNC(=O)CC3CCCCC3)nn2)cc1	-2	-4

Overlap with the part before: 4 entries; new compounds follow.
entry	Molecule	NPYLR7 ag	NPYLR7 ag max-min
27	Cc1cc(C)n2nc3cccc(F)c3c2n1	-9	-16
28	Cc1cccc(NC(=O)Cn2nnc(C(=O)NCCc3ccccc3)c2N)c1C	4	7
29	Cc1ccc(C(=O)NCC2(N(C)C)CCSC2)s1 (configuration not stated)	1	-2
30	COc1ccc(-c2ccc(OCCNC(=O)CC3CCCCC3)nn2)cc1	-2	-4
31	CC1=NN(CCN2CCN(c3ccc(F)cc3)CC2)c2nc3c(c(=O)n(C)c(=O)n3C)n2C1	1	-5
32	O=C(c1cccc(N2CCNC2=O)c1)N1CCN(S(=O)(=O)c2cccnc2)CC1	7	2
33	COCCNC(=O)c1cnn2c1NC(c1ccc(Br)cc1)CC2C(F)(F)F (configuration not stated)	-2	-8
34	N#Cc1ccccc1CN1CCN(c2ncc(C(=O)N3CCOCC3)s2)C1=O	0	-3
35	CC(Sc1nncs1)C(=O)NCc1ccc(N2CCN(C)CC2)nc1 (configuration not stated)	-6	-7
36	COc1cc(CNc2nccnc2-c2ccc3ccccc3c2)cc(OC)c1OC	-5	-11
37	COc1ccc(-c2n[nH]c(=S)n2N=Cc2ccc(OC)c(Br)c2)cc1	5	5
38	O=C(c1ccccc1N1CCS(=O)(=O)CC1)N1CCCC(O)(CO)C1 (configuration not stated)	21	20
39	Cc1nnsc1CN(C)Cc1cn[nH]c1C(=O)O	1	7
40	c1ccc(Nc2ncnc3sc4c(c23)CCCC4)cc1	-2	-10
41	O=C(Nc1cnn(-c2ccc(C(=O)N3CCC(c4ccccc4F)C3)cc2)c1)c1ccoc1 (configuration not stated)	16	9
42	CSCCCNC(=O)[C@@H]1C[C@H](NC(=O)c2cccc(Cl)c2)CN1C	-1	1
43	Cc1cc(NC(=O)CN2CCN(S(=O)(=O)/C=C/c3ccccc3)CC2)on1	-1	-2
44	CC(C)Cn1c(N2CCN(Cc3ccc(Br)cc3)CC2)nc2c1c(=O)[nH]c(=O)n2C	0	24
45	Fc1ccc(Sc2ncnc3sc4c(c23)CCC4)cc1	-1	-1
46	Cc1nnc(NC2=NS(=O)(=O)c3ccccc32)s1	29	23
47	CC(C)(C)CC(=O)Nc1cnn(CC(=O)Nc2ccc3c(c2)OCCO3)c1	-16	-15
48	O=C(O)c1ccc(-c2ccn[nH]2)cc1	0	0
49	COc1cc(C=CC(=O)Oc2ccccc2Br)cc(OC)c1OC	-1	-3
50	CC(=O)c1ccc(OCC(=O)Nc2ccc(S(=O)(=O)N3C(C)CCCC3C)cc2)cc1 (configuration not stated)	1	1
51	COc1ccc(N2C(=O)CSC2c2ccc(F)c(F)c2)c(OC)c1 (configuration not stated)	-5	-11
52	CCCc1ccccc1N1C(=O)CSC1c1ccc(NC(=O)CCl)cc1 (configuration not stated)	42*	49*
53	COC(=O)[C@@H](C)NC(=O)[C@H]1CN(C(C)=O)CCN1S(C)(=O)=O	-9	-18
54	Cc1ccc(C(=O)N(Cc2nccn2Cc2cccc(Cl)c2)C2CC2)cc1	5	5
55	CN1CCN2CCN(C(=O)CN3CCOc4ccccc4C3)CC2C1=O (configuration not stated)	0	2
56	COc1cccc(C(=O)N2CCN(c3ccc(-n4cccn4)nn3)CC2)c1	12	10
57	C#CCOCC(O)CN(Cc1ccccc1)Cc1cccs1 (configuration not stated)	-8	-1
58	CO[C@H]1CN(S(=O)(=O)c2ccc(Cl)cc2)[C@H]2CC[C@@H](O)[C@H]1C2	21	22
59	COc1ccc(-n2c(N)cc(=O)nc2SCC(=O)N2CCN(c3ccccc3)CC2)cc1	-2	-3
60	O=S(=O)(NC1(c2ccccc2)CCC1)c1ccccc1OC(F)(F)F	-1	-2

Molecules shown so far that have a CF3 group (three):
entry	Molecule	NPYLR7 ag	NPYLR7 ag max-min
10	NC(=O)COc1cccc(NC(=O)/C=C/c2ccc(Cl)c(C(F)(F)F)c2)c1	6	7
33	COCCNC(=O)c1cnn2c1NC(c1ccc(Br)cc1)CC2C(F)(F)F (configuration not stated)	-2	-8
60	O=S(=O)(NC1(c2ccccc2)CCC1)c1ccccc1OC(F)(F)F	-1	-2

4 structures already listed, arranged by molecular weight, low to high:
entry	Molecule	NPYLR7 ag	NPYLR7 ag max-min
40	c1ccc(Nc2ncnc3sc4c(c23)CCCC4)cc1	-2	-10
24	Oc1ccc(-c2nc3ccccn3c2NC2CCCCC2)cc1	11&7	10&10
7	CNC(=O)CC1CCN(C(=O)CCn2ccc3ccccc32)CC1	7	5
59	COc1ccc(-n2c(N)cc(=O)nc2SCC(=O)N2CCN(c3ccccc3)CC2)cc1	-2	-3

(further entries)
entry	Molecule	NPYLR7 ag	NPYLR7 ag max-min
61	O=C(c1ccc(-c2ccccc2)cc1)N(Cc1ccco1)CC1CCCO1 (configuration not stated)	20	25
62	CCC(CO)N(Cc1ccco1)C(=O)c1cn(C)c2ccc(C)cc2c1=O (configuration not stated)	17	16
63	Clc1ccc(C2CN(Cc3cnc(CC4CCCC4)[nH]3)CCO2)cc1 (configuration not stated)	1	-1
64	O=C(Nc1nc2c(s1)CCc1ccccc1-2)C1CC1	-2	-3
65	CCOC(=O)c1ccc(NC(=O)C(CC(=O)O)NCCNc2ccc(S(=O)(=O)CC)cc2)cc1 (configuration not stated)	5	6
66	Cc1ccc(-c2nnc(SCc3ccc(C(=O)NC4CC4)cc3)n2-c2cccc(C)c2)cc1	1	8
67	COc1ccc(-c2onc(C)c2-c2ccc(OC)c(OC)c2)c(O)c1	-3	-6
68	Cc1cc(NC(=O)N(CCC#N)CCC(F)(F)F)ccc1Br	-6	-10
69	CCc1nc2ccc(C(=O)N3CCNC(=O)C3)cn2c1N(CC)Cc1cccc(Br)c1	17	12
70	O=C(C1COc2ccccc2C1)N1CCN(Cc2cccc(-c3noc(C4CCCC4)n3)c2)CC1 (configuration not stated)	4	2
71	CCOC(=O)c1nn(-c2cccc(Br)c2)c(=O)cc1OS(=O)(=O)c1cccs1	11	8
72	Cc1ncc(CO)c(CN2CCCC2c2ccccn2)c1O (configuration not stated)	8	-5
73	CC(C)(C)OC(=O)N1CCC2(CC1)CC(N1CCOCC1)CO2 (configuration not stated)	-9	-16
74	Cc1ccc(S(=O)(=O)NC(=O)C2(C)CCN2C(=O)c2c(C)noc2C)nc1 (configuration not stated)	4	3
75	CC(NC(=O)NC1CCCCC1)C1CC2CCC1C2 (configuration not stated)	2	9
76	O=C1CN(C(=S)Nc2cc(Cl)ccc2F)CC2c3cc(F)ccc3CCN12 (configuration not stated)	22	11
77	COc1cccc(C(=O)N2CCN(Cc3cccc(-c4noc(-c5cccs5)n4)c3)CC2)c1C	3	1
78	Oc1oc(-c2ccc(Cl)cc2)nc1C=Nc1ccccc1I	-2	-6
79	C=CCOc1nc(OCC)nc(N2CCCCC2)n1	5	4
80	Cc1cccc(-c2cc(N)n(-c3ccc(C(=O)NCc4ccco4)cc3)n2)c1	-8	-11
81	C=CCOc1c(OC)ccc2c1CN(C1CCCC1)C(=O)CCN2CC(=O)OCC	-1	0
82	O=C(COc1cccnc1)N1CCC(c2n[nH]c(=O)n2Cc2ccccc2)CC1	2	2
83	COc1ccccc1OCCNS(=O)(=O)c1ncn(C)c1Cl	11	11
84	O=C(c1cccc(F)c1)N(Cc1ccccc1)CC1CC(c2cccc(F)c2)=NO1 (configuration not stated)	13	25
85	C[C@@H]1CN(C(=O)c2nc3sccn3c2CNCCCc2ccccc2)C[C@H](C)O1	4	3
86	Cc1ccc(CC2(O)CCN(CCOc3ccc(O)cc3)CC2)cc1	-10	-14
87	Cc1cc(C(=O)N/N=C2\CCCC(=O)C2)c(C)n1-c1ccccc1	-1	-2
88	O=C(NCCc1ccccc1)Nc1ccc(NCC2CCCC2)cc1	-12	-14
89	Cc1cccc(C)c1OCCn1nc(C)c(S(=O)(=O)N2CCCCC2)c1C	8	6
90	COc1ccc(C2(C(=O)N3CCC4(CN(C)C(=O)O4)C3)CCCC2)cc1 (configuration not stated)	1	-4
91	COc1ccc(-c2ncncc2C(C)C)c(C)c1	1	11
92	COc1cccc(Cc2nsc(Oc3cccc(C(=O)O)c3)n2)c1	-12	-23
93	CCC(C(=O)Nc1cc(C)on1)N1CCN(c2ccccc2C)CC1 (configuration not stated)	-5	-7
94	C(=C\c1nn2c(CN3CCCCCC3)nnc2s1)/c1ccccc1	2	1
95	O=C(Nc1ncn[nH]1)C1CCCN1C(=O)C1CCCCC1 (configuration not stated)	-3	-8
96	COc1cc(C(C2Sc3nc(C)nn3C2=O)N2CCC3(CC2)OCCO3)cc(OC)c1OC (configuration not stated)	3	2
97	COC(=O)C1=C(C)N(C)C(=O)NC1c1ccc(O)cc1 (configuration not stated)	9	3
98	CC1=CCCC(C)(C)C1/C=C/C(C)=N\O (configuration not stated)	1	-4
99	CCOC(=O)CC1COCCN1CC(=O)Nc1cc(C)ccc1F (configuration not stated)	-2	-6
100	CCOC(CNC(=O)c1c(O)nc2cc(C)ccn2c1=O)OCC	-2	47
101	Cn1ncc([N+](=O)[O-])c1C(=O)N1CCOCC1	-1	-5
102	O=C1CC2(CCN(CCc3ccccc3)CC2)CN1	-2	-6
103	COc1ncccc1CN1CCN(c2ccc(C(N)=O)cn2)CC1	0	-2
104	Cc1nc2c(=O)n(Cc3ccc(F)cc3)nc(-c3cccs3)c2s1	4	0
105	COc1ccc(-c2nnc(NC(=O)c3ccc(F)cc3)s2)cc1	-6	-10
106	OCCN(Cc1ncc[nH]1)CC12CC3CC(CC(C3)C1)C2	21	10
107	CCCC(=O)NCc1ccc(N2CC(C)OC(C)C2)c(F)c1 (configuration not stated)	5	3
108	Cc1nn(CC(=O)NCCCn2ccnc2)c(C)c1[N+](=O)[O-]	-2	-7
109	CCn1c(=O)c2c(nc3n(-c4cc(C)ccc4C)c(C)cn23)n(C)c1=O	7	4
110	CC(=O)Nc1ccc(CN2C(=O)C(C)ON=C2c2ccc(CN3CCOCC3)cc2)cc1 (configuration not stated)	1	1
111	CCOC(=O)c1ccc(NC(=O)NCCN2CCN(c3nc(Cc4cccc(OC)c4)ns3)CC2)cc1	-8	-13
112	Cc1cnc(SCCc2ccncc2)nc1C	2	1
113	O=C(O)CCC(=O)N(CCc1ccccc1)C1CC(=O)N(c2ccc(F)cc2)C1=O (configuration not stated)	0	-3

Source: PubChem BioAssay
